Source: PubChem BioAssay (ICCB-Longwood Screening Facility, Harvard Medical School)
MgrA DNA FP: S. aureus MgrA-DNA binding modulation. fluorescence polarization. inhibition, %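 (about 10 µg/mL by stock and volumes)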. 84,000 compounds, 0.13% hits. AID 602314;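 active means above 50% in either of two replicates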;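 further: 0% = protein plus DNA without compound and 100% = DNA alone without protein; higher means less MgrA bound to DNA so lower polarization; one replicate is shown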
S aureus helic: S. aureus DNA helicase inhibition. inhibition, %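 (tested at about 80 µM)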. purified S. aureus helicase, fluorescence unwinding assay; about half of the hits fall short of the stated cut. 120,000 compounds, 0.05% hits;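 active means both duplicates at 50% or more, or one of them with a favoured structure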;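 further: 0% = mean of negative control wells and 100% = mean of positive control wells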
* hit, by the source's call; · = not tested or not shown; & = joins results of further samples. Some of the compounds tested; the hit share may differ from the screen's.

| smiles | MgrA DNA FP | S aureus helic |
| --- | --- | --- |
| C[C@]12CC[C@@H]3c4ccc(O)cc4CC[C@H]3[C@@H]1CCC2=O | 0.2 | · |
| CCOC(=O)c1sc2sc(C(=O)OCC)c(C(C)(C)C)c2c1N | -1.3 | · |
| CN(C)CC1Cc2ccccc2O1 (stereo not drawn) | · | 10 |
| CCOC(=O)Cn1ncc(-c2ccccc2)c1N | 6.3 | 14 |
| O=C(Nc1ccccc1I)C1(S(=O)(=O)c2ccccc2)CCCC1 | -1.9 | 6 |
| O=C(NC1CC1)c1cccc(NC(C(=O)N2CCOCC2)c2ccccc2)c1 (stereo not drawn) | · | -10 |
| CN(Cc1cccs1)C(=O)[C@H](Cc1ccccc1)NC(=O)c1ccco1 | · | 9 |
| N#Cc1cnc(SCC(=O)NC(=O)Nc2ccccc2)nc1N | -1.0 | · |
| COc1ccc(N(C)C(=O)Cc2c(C(=O)O)n(C)c3ccccc23)c(OC)c1 | · | -1 |
| CSc1nc(-n2nc(C)cc2C)nc(-c2ccco2)c1C#N | 2.0 | · |
| COc1cc2c(cc1OC)C1(CCCC1)CN(C(=O)c1cc(Br)ccc1OC)C2 | 0.2 | 14 |
| CC(=O)Oc1cc(C(C)C)c(OCCN(C)C)cc1C | 1.4 | · |
| C=CCN=C1S/C(=C\N(C)C)C(=O)N1S(=O)(=O)c1ccc(C)cc1 | · | 9 |
| O=C1CC(c2nc(-c3ccccc3)no2)CN1c1ccccc1 (stereo not drawn) | 6.3 | 11 |
| Cn1c(COc2ccccc2)nnc1SCC(=O)N1CCc2ccccc21 | 0.7 | 7 |
| CCOC(=O)c1nc(C)sc1-c1ccnn1C(=O)c1cccc(Cl)c1 | 0.8 | · |
| COc1ccc(NC(=O)Cn2ccn(Cc3ccccc3)c(=O)c2=O)cc1 | · | 11 |
| O=C(CSc1ccccn1)N(C1=CCCCC1)C1CC1 | · | -1 |
| CC(C)C(OC(=O)c1ccc(Cl)nc1)C(=O)NC1CCCCC1 (stereo not drawn) | -2.4 | 1 |
| Cc1cccc(C)c1NC(=S)NCCC(=O)O | · | 0 |
| CC(C)(C)c1ccc2c(c1)c1c3n2CCN(CCC#N)C3CCC1 (stereo not drawn) | 1.1 | 4 |
| NC(=O)c1ccc(NC(=O)COC(=O)Cc2cn3ccsc3n2)cc1 | · | 7 |
| COc1ccc(NC(C)C(=O)NC2CCCCC2C)cc1 (stereo not drawn) | · | -6 |
| CCn1c(=S)sc2nc(C)sc21 | 4.9 | 1 |
| COC(=O)c1ccc2c(=O)[nH]c(COC(=O)c3oc4ccccc4c3C)nc2c1 | · | 1 |
| Cc1cc(NC(=O)c2sc(Nc3cccc(C(F)(F)F)c3)nc2N)no1 | -0.1 | -3 |
| O=C(CSc1nc(O)cc(=O)n1C1CCCC1)NC12CC3CC(CC(C3)C1)C2 | · | -5 |
| CCCOC(=O)Cn1cnc2sc(C)c(C)c2c1=O | -0.8 | -7 |
| CCOC(=O)c1cnn(-c2nnc(-c3ccccc3)c3ccccc23)c1/N=C/N(C)C | · | -1 |
| COc1ccc(-c2cc(C(=O)Nc3ccc(F)cc3)c(C(F)(F)F)o2)cc1 | 0.8 | · |
| C=CCC(N)(CC=C)c1ccncc1 | -4.0 | -5 |
| CCOC(=O)c1ccc(NC(=O)CNC(=O)C2CCCCC2)cc1 | · | 3 |
| C=CCSc1nc2ccccc2[nH]1 | -1.0 | -20 |
| Cc1ccc2cc3cc(C(=O)NCCCN4CC(C)CC(C)C4)oc3nc2c1 (stereo not drawn) | · | -25 |
| c1cc2c(cc1CNC1CCCC1)OCO2 | 16 | 5 |
| O=c1[nH]c(=S)[nH]c(O)c1C=NC12CC3CC(CC(C3)C1)C2 | -0.1 | · |
| c1cc(-c2ccc3c(c2)CCO3)[nH]n1 | -0.4 | · |
| O=C(CCn1c(=O)sc2ccccc21)NCCC1=CCCCC1 | · | 10 |
| c1ccc(-n2nnnc2-c2ccc3ccccc3n2)cc1 | · | -12 |
| CCOc1ccc(N(/C=C2\Sc3ccccc3C2=O)C(=O)c2ccc(C)cc2)cc1 | -0.4 | 5 |
| CCOC(=O)CC1=NN=C(N)SC1 | 1.4 | 2 |
| O=C(Nc1ncn[nH]1)C(F)(F)C(F)F | -1.8 | 7 |
| Cc1cc(C(=O)CSc2ccc(S(=O)(=O)N3CCCCC3)cn2)c(C)n1Cc1ccco1 | · | -13 |
| CCOc1ccc(-c2nc(C#N)c(NCC(C)C)o2)cc1 | 0.7 | 3 |
| CCn1c(C(=O)NCCc2ccccc2)cc2sc(Cl)cc21 | · | -2 |
| COc1ccc(F)cc1S(=O)(=O)N1CCN(c2c(C)cc(C)cc2C)CC1 | 2.8 | 4 |
| COc1cc(C2C(=O)N(C3CCC(C)CC3)CC(=O)N2Cc2ccc3c(c2)OCO3)ccc1OC(C)C (stereo not drawn) | · | 6 |
| Cc1cccc(NC(=O)C2Sc3nnc(-c4ccccc4)n3NC2c2ccccc2)c1 (stereo not drawn) | -1.5 | 4 |
| O=C(COc1ccccc1F)Nc1ccc(I)cc1 | -2.5 | -8 |
| CC1=NNC(=O)C1C(c1ccccc1F)C(C#N)C#N (stereo not drawn) | -0.8 | -3 |
| CNC(=O)c1ccc2snnc2c1 | 0.8 | 3 |
| COCCOC(=O)C1=C(N)OC2=C(C(=O)CCC2)C1c1ccccc1[N+](=O)[O-] (stereo not drawn) | 5.8 | · |
| CCc1c(C)nc2[nH]nc(NC(=O)C(F)(F)F)n2c1=O | 1.1 | 0 |
| COc1cc(/C=C(\C#N)C(N)=S)cc(OC)c1OC | -0.2 | · |
| COc1ccc(Br)c(-c2nc(-c3cccs3)no2)c1 | 1.2 | · |
| Cc1ccc(C)c(S(=O)(=O)Nc2ccc(C(=O)N3CC(C)OC(C)C3)cc2)c1 (stereo not drawn) | 1.0 | 27 |
| c1nc(NCCN2CCOCC2)c2nc3n(c2n1)CCCCC3 | · | -12 |
| C=C(C1CC1)N(Cc1ccccc1)C(=O)c1cccc(F)c1 | -0.4 | · |
| CN(C)c1nc(N)nc(C2CCCN2S(=O)(=O)c2ccc3ccccc3c2)n1 (stereo not drawn) | 4.4 | 9 |
| CCN(CC)c1ccc2nnc(CCC(=O)N(CC)c3ccccc3)n2n1 | · | 7 |

A different layout for some results above.
MgrA DNA FP | S aureus helic | Structure
-0.1 | · | O=c1[nH]c(=S)[nH]c(O)c1C=NC12CC3CC(CC(C3)C1)C2
-0.4 | · | c1cc(-c2ccc3c(c2)CCO3)[nH]n1
· | 10 | O=C(CCn1c(=O)sc2ccccc21)NCCC1=CCCCC1
· | -12 | c1ccc(-n2nnnc2-c2ccc3ccccc3n2)cc1
-0.4 | 5 | CCOc1ccc(N(/C=C2\Sc3ccccc3C2=O)C(=O)c2ccc(C)cc2)cc1
1.4 | 2 | CCOC(=O)CC1=NN=C(N)SC1
-1.8 | 7 | O=C(Nc1ncn[nH]1)C(F)(F)C(F)F
· | -13 | Cc1cc(C(=O)CSc2ccc(S(=O)(=O)N3CCCCC3)cn2)c(C)n1Cc1ccco1
0.7 | 3 | CCOc1ccc(-c2nc(C#N)c(NCC(C)C)o2)cc1
· | -2 | CCn1c(C(=O)NCCc2ccccc2)cc2sc(Cl)cc21
2.8 | 4 | COc1ccc(F)cc1S(=O)(=O)N1CCN(c2c(C)cc(C)cc2C)CC1
· | 6 | COc1cc(C2C(=O)N(C3CCC(C)CC3)CC(=O)N2Cc2ccc3c(c2)OCO3)ccc1OC(C)C (stereo not drawn)
-1.5 | 4 | Cc1cccc(NC(=O)C2Sc3nnc(-c4ccccc4)n3NC2c2ccccc2)c1 (stereo not drawn)
-2.5 | -8 | O=C(COc1ccccc1F)Nc1ccc(I)cc1
-0.8 | -3 | CC1=NNC(=O)C1C(c1ccccc1F)C(C#N)C#N (stereo not drawn)
0.8 | 3 | CNC(=O)c1ccc2snnc2c1
5.8 | · | COCCOC(=O)C1=C(N)OC2=C(C(=O)CCC2)C1c1ccccc1[N+](=O)[O-] (stereo not drawn)
1.1 | 0 | CCc1c(C)nc2[nH]nc(NC(=O)C(F)(F)F)n2c1=O
-0.2 | · | COc1cc(/C=C(\C#N)C(N)=S)cc(OC)c1OC
1.2 | · | COc1ccc(Br)c(-c2nc(-c3cccs3)no2)c1
1.0 | 27 | Cc1ccc(C)c(S(=O)(=O)Nc2ccc(C(=O)N3CC(C)OC(C)C3)cc2)c1 (stereo not drawn)
· | -12 | c1nc(NCCN2CCOCC2)c2nc3n(c2n1)CCCCC3

(cont.)
| smiles | MgrA DNA FP | S aureus helic |
| --- | --- | --- |
| CC(C)c1cccc(C(C)C)c1NC(=O)c1ccncc1 | -3.6 | 6 |
| O=C(Cn1ccn(-c2ccc(F)cc2)c(=O)c1=O)Nc1ccccc1 | · | 12 |
| N#Cc1c2c(c(N3CCOCC3)[nH]c1=S)CCCC2 | 2.5 | -4 |
| O=C(OCc1c(F)cccc1Cl)c1ccccc1N1CCCC1=O | · | -7 |
| CNC(=O)n1cc(C)c(-c2cccs2)n1 | -1.2 | · |
| Cc1cccc(C)c1NC(=O)CNC(=O)CSc1nnc(-c2cccnc2)n1Cc1ccco1 | · | 1 |
| Cc1cc(CN2CCc3ccccc3C2)cs1 | -1.4 | 5 |
| N#CC(c1ccc(O)cc1)N1CCN(C(C#N)c2ccc(O)cc2)CC1 (stereo not drawn) | -0.1 | · |
| Cc1cc(C(=O)Nc2ccccc2)c(-c2ccccc2)o1 | -7.5 | 13 |
| CC(=O)NCc1ccc(C(=O)COC(=O)c2cc(-c3ccccc3)nn2-c2ccccc2)o1 | · | 13 |
| CCSc1nc(N)cc(=O)[nH]1 | 1.7 | · |
| O=C(CSc1ncccn1)Nc1ccccc1C(F)(F)F | · | -6 |
| O=c1oc2cc(OCc3c(F)cccc3F)ccc2c2c1CCC2 | 1.8 | 4 |
| CN(C)CCn1c(=O)n(C)c(=O)c2[nH]cnc21 | · | 31 |
| C=CCNCc1ccc(-c2ccc(OC)c(Cl)c2)o1 | -5.1 | 10 |
| C=C(NC(=O)C(=C)NC(=O)c1csc(C2=NC3c4csc(n4)C4NC(=O)c5csc(n5)C(C(C)(O)C(C)O)NC(=O)C5CSC(=N5)C(=CC)NC(=O)C(C(C)O)NC(=O)c5csc(n5)C3(CC2)NC(=O)C(C)NC(=O)C(=C)NC(=O)C(C)NC(=O)C(C(C)CC)NC2C=Cc3c(C(C)O)cc(nc3C2O)C(=O)OC4C)n1)C(N)=O (stereo not drawn) | -1.1 | · |
| COc1cc2[nH]c(=S)n(C3CC3)c(=O)c2cc1OC | 0.3 | -6 |
| CCOC(=O)C1CCCN(C(=O)c2cccc(C)c2)C1 (stereo not drawn) | 0.3 | -12 |
| O=C(NCc1ccc2c(c1)OCO2)c1cccnc1 | 3.8 | -9 |
| Cc1nc(-c2ccncc2)ncc1-c1nsc(Nc2ccccc2)n1 | -1.6 | · |
| NC(=O)Cc1cc(Br)sc1Br | -2.0 | · |
| CC1=NN(c2nc3ccccc3[nH]2)C(=O)C1Cc1ccccc1 (stereo not drawn) | 4.6 | 10 |
| Cc1cc(NC(=O)c2ccc(Cl)c(Cl)c2)ccc1NC(=O)c1ccco1 | 1.3 | 16 |
| CSC(=CC(=O)c1ccc(F)cc1)SC | 0.2 | · |
| COc1ccc(C(CNC(=O)Nc2ccc(C)cc2)N2CCCC2)cc1 (stereo not drawn) | · | 9 |
| CCOC(=O)c1c(C)n(-c2ccc(C)cc2)c2ccc(OCC(O)CNCc3ccco3)cc12 (stereo not drawn) | · | 14 |
| COc1ccc(OC)c(-c2nc(N)sc2N=Nc2cccnc2)c1 | · | 3 |
| O=C(O)c1ccc2c(c1)C(=O)N(C1=NCCS1)C2=O | -0.1 | 8 |
| COc1cccc(/C=C2/NC(=O)N(c3ccccc3)C2=O)c1 | 3.5 | 8 |
| C[C@H](NC(=O)c1ccco1)C(=O)Nc1cc(Cl)ccc1N1CCCC1 | · | -3 |
| C(=C\c1ccccc1)/CNCCSc1nnnn1-c1ccccc1 | · | -13 |
| N[C@@H](Cc1cc(I)c(Oc2cc(I)c(O)c(I)c2)c(I)c1)C(=O)O | 5.5&0.9 | · |
| O=C(NCc1ccco1)c1ccc2c(O)c(S(=O)(=O)c3ccccc3)c(=O)[nH]c2c1 | · | -15 |
| O=C1CC(c2ccccc2)c2cc3c(cc2N1)OCCO3 (stereo not drawn) | · | 27 |
| Cc1cc(-c2ccc(S(=O)(=O)NCCN3CCCC3)s2)on1 | · | -8 |
| O=C(/C=C/c1cccc(N2C(=O)C3C4C=CC(C4)C3C2=O)c1)NCc1ccco1 (stereo not drawn) | 0.9 | 23 |
| Cc1cc(=O)[nH]c(SCC(=O)Nc2ccc(N3CCCC3)cc2)c1C#N | · | 14 |
| OC[C@H]1NC[C@H](O)[C@@H](O)[C@@H]1O | 3.3 | · |
| CNC(=O)c1c[nH]c2ccc(S(=O)(=O)Nc3cccc(OC)c3)cc2c1=O | · | -16 |
| O=C1CN(/N=C/c2ccc([N+](=O)[O-])o2)C(=O)N1 | 5.8&2.1 | · |
| COc1cccc(-c2cc(C(=O)N3CCc4ccccc4C3)[nH]n2)c1 | · | -24 |
| O=S(=O)(NC1=NCCCN1)c1cc(C(F)(F)F)cc(C(F)(F)F)c1 | 0.5 | · |
| Cc1nc(=O)c(-c2ccccc2)c(C)n1CCc1cnc[nH]1 | · | -2 |
| Cn1cc(C2CC(=O)N(c3ccc(Br)cc3)C2=O)c2ccccc21 (stereo not drawn) | -1.5 | 3 |
| COC(=O)c1sc(SC)c(S(=O)(=O)C(C)C)c1N | 0.4 | · |
| Cc1cccc2sc(NN)nc12 | · | 5 |
| COc1cc(C(=O)Nc2cccc(O)c2)c2ccccc2n1 | 0.6 | 4 |
| O=C(O)c1ccccc1Cc1cccs1 | -3.8 | -3 |

Complete entries, looked up by structure:
Cc1cc(=O)[nH]c(SCC(=O)Nc2ccc(N3CCCC3)cc2)c1C#N across the screens: MgrA DNA FP = ·; S aureus helic = 14
Cc1nc(=O)c(-c2ccccc2)c(C)n1CCc1cnc[nH]1 across the screens: MgrA DNA FP = ·; S aureus helic = -2
